# HNF4A DNA FP: change in binding of human HNF4 alpha to DNA. P41235. activity change, % at 10 µM. AID 1224865. 360,000 compounds, 0.3% hits. HNF4a-FITC DNA binding, fluorescence polarization, 1 h; in the data active = activity change above about 30%, passing the limit was not always enough;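 also: controls were the assay level and a saturating level of protein; the project sought stronger binding though the title names inhibitors; some compounds called inactive have numbers as strong as hits; positive values seem to mean higher polarization but the record does not say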
# FGF22 binding: shifts melting point of recombinant human FGF22. Q9HCT0. recombinant FGF22 thermal shift, SYPRO orange fluorescence; percent of sucrose octasulfate shift, DMSO zero. calls only at 9.99 µM. 340,000 compounds, 1.5% hits;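 active = melting point raised past a set limit in the mean and every replicate; three in four hits are not shown here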
# ALR inh: human ALR oxidase inhibition via reduced H2O2. inhibition, % (test concentration not listed). P55789. purified ALR, DTT oxidation, H2O2 HRP-luminol luminescence. 290,000 compounds, 3.8% hits;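 active = mean and each replicate at 75% or more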;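 also: stock transfer was 7.5 nL into about 7.5 µL; 0% = neutral wells and 100% = wells with inactivated enzyme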
# Target sequence (P55789 whole entry, looked up): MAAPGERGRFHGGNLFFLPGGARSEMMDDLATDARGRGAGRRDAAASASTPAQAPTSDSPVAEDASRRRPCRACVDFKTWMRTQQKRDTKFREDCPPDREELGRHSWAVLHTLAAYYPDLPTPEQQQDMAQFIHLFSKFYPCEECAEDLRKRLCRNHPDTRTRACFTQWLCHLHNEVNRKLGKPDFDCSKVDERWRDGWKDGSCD
# B2AR ag: agonists of human beta-2 adrenergic receptor inducing internalization. P07550. Am2.2-beta2AR cells, FAP receptor internalization, flow cytometry; reference of the scale not given here. response, % (no concentration beside the values). 340,000 compounds, 0.43% hits. AID 504454;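 active = response above a set limit, near 3 SD of response in nonfluorescent compounds, cut at about 42% in these data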;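 also: stock transfer was 100 nL into about 11 µL; a reference agonist was the positive control; negative values mostly stem from fluorescent compounds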
# Target sequence (P07550 whole entry, looked up): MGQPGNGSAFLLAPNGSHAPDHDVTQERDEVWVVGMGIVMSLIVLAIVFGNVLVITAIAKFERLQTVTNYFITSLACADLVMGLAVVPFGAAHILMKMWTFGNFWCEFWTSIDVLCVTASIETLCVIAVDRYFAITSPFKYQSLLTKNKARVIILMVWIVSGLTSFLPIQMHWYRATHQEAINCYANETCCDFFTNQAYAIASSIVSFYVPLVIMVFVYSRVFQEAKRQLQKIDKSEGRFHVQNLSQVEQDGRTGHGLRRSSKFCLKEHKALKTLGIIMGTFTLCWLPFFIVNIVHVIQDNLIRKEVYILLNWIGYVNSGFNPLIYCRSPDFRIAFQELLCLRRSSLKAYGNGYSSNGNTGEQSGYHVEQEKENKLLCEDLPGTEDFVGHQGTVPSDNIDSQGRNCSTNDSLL
# Ecoli growth: E. coli growth inhibition. Escherichia coli growth, OD600, 23 h; stronger effect = lower value. OD600 absorbance (test concentration not listed). 330,000 compounds, 0.21% hits;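 active = OD600 absorbance below the run mean of sample wells minus 3.6 SD, in any replicate, cut at about 0.56 in these data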;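 also: stock transfer was 300 nL into about 60 µL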
# UCH37 DUB inh: human UCH37 deubiquitinating enzyme inhibition; purified proteasome/UCH37, Ub-AMC cleavage fluorescence; 330,000 compounds, 0.33% hits; inhibition, % (no concentration beside the values);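 active = mean of two replicates above 20%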;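 also: 0% = compound-free wells with enzyme and 100% = wells lacking proteasome; stock transfer was 100 nL into about 20 µL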
# Target sequence (Q9Y5K5 whole entry, looked up): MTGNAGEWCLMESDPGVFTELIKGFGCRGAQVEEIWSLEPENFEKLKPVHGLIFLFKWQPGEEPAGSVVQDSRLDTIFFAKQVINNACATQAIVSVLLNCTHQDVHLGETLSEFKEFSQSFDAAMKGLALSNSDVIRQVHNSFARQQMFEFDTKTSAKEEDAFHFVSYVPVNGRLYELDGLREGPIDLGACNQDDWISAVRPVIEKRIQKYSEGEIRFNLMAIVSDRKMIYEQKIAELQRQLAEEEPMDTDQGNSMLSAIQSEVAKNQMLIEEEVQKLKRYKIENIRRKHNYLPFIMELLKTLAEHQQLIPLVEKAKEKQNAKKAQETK
#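 Signal – fluorescence, ex 355 nm, em 460 nm · System – Proteasome-bound UCH37 · Input – 0.15 nM proteasome as dispensed · Timing – 30 min preincubation with enzyme, 25 min cleavage at room temperature · Read-out basis – percent inhibition of cleavage signal versus uninhibited and no-proteasome wells · Medium – Tris-HCl pH 7.4 with ATP-MgCl2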
# rRNA inh HTS: inhibitors of bacterial rRNA selective over humanized ribosomes; E. coli WT GFP vs humanized-ribosome RFP mutants, fluorescence, 24 h; stronger effect = lower value; DMSO median 0, no signal -100; GFP signal change (wild-type ribosome), % (concentration not given with the values); 350,000 compounds, 1.6% hits;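 active = significant combined selectivity score with lowered wild-type GFP, culture density cut under 30%, mutant RFP and density less affected; inactive = any of these conditions unmet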; also: one replicate is shown; some compounds called inactive have numbers as strong as hits
# rRNA inh HTS OD600: second read-out of rRNA inh HTS, no call of its own (marks repeat the call); OD600 change, %; measured here: OD600 growth;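 optical density of the mix in the first replicate; 0 = DMSO median and -100 = no signal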
# rRNA inh HTS RFP: second read-out of rRNA inh HTS, no call of its own (marks repeat the call); RFP signal change, %; measured here: RFP humanized mutant strains;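 first replicate; 0 = DMSO median and -100 = no signal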
# Active calls of the source: *; i = inactive; nt = no result given; + = active, no number. Some of the compounds tested; rates above refer to the full screens.
SMILES,HNF4A DNA FP,FGF22 binding,ALR inh,B2AR ag,Ecoli growth,UCH37 DUB inh,rRNA inh HTS,rRNA inh HTS OD600,rRNA inh HTS RFP
CC(C)c1ccc(NC(=O)CCNC(=O)Cn2ccc3ccccc3c2=O)cc1,0.5,i,-24,4,0.67,-4.5,5,11,-1.2
OCC[C@@H]1C[C@H](O)[C@@H](O)[C@]2(OCc3ccc(CO)cc32)O1,3.6,i,nt,nt,nt,nt,6,7,1.2
CN(CC(=O)Nc1ccc(Cl)c(C(F)(F)F)c1)C(=O)c1ccc2c(c1)OCCO2,0.6,i,-3,-5,0.66,4.0,-7,-18,0.8
CC1(Cc2ccc(F)cc2)C(=O)Nc2c(Cl)cccc21 (configuration not stated),-0.9,i,nt,nt,nt,nt,-15,-26,-2.2
Cn1nc(C(F)(F)F)c(-c2ccc(F)cc2)c1NC(=O)CSCC(=O)O,-1.3,i,-4,0,0.7,2.9,6,13,1.0
Cc1cc(C)cc(NC(=S)NCCN(C2CCCCC2)C2CCCC2)c1,-1.4,i,-8,5,0.64,2.4,-1,-13,5.5
CC(=O)NCCc1ccc(S(=O)(=O)N2CCOCC2)cc1,1.2,nt,-3,8,0.76,0.2,nt,nt,nt
COc1ccc2[nH]c3c(=S)nc[nH]c3c2c1,-1.9,i,99*,8,0.7,-9.6,11,1,-3.3
O=C(O)c1cccc2c1C(=O)c1ccc(N3CCCC3)cc1S2(=O)=O,32,i,4,-9,0.69,5.8,10,11,-4.0
COc1ccccc1/C=C/C(=O)OCCN1C(=O)c2ccccc2C1=O,1.4,i,-3,1,0.64,2.9,-10,-45,-11
Cc1ccc(C(=O)Nc2cc(Cl)ccc2-n2cncn2)o1,4.5,i,nt,10,0.62,-5.9,4,-2,2.5
CCCCn1nnnc1C1(C)CCC(=O)N1CC1CCCCC1 (configuration not stated),-0.4,i,nt,nt,nt,nt,9,11,6.0
COc1ccc(-c2cc(C(=O)NCCc3ccccc3)no2)cc1OC,-2.1,nt,-5,-3,0.67,4.2,nt,nt,nt
CC1CC(=O)Nc2ccccc2N1S(=O)(=O)c1cccc(F)c1 (configuration not stated),4.5,i,-1,1,0.71,5.9,9,7,-0.2
C=CCNc1nc(C(=O)OCC(=O)c2ccc(OC)cc2OC)cs1,0.3,i,2,-5,0.71,1.2,-1,0,-2.7
Cc1[nH]n(CCC#N)c(=O)c1CC(=O)N1CCN(c2ccccc2)CC1,-1.6,nt,33,-3,0.71,-2.6,15,8,2.3
CCCCN(C)/C=N/c1c(C#N)cnn1-c1ccc(C)cc1,0.9,nt,37,0,nt,nt,nt,nt,nt
CC1CCc2nc3ccc(S(=O)(=O)N4CCC(C(=O)NC5CCCC5)CC4)cc3c(C(=O)O)c2C1 (configuration not stated),5.4,i,nt,-7,0.73,-196,18,13,8.9
CCOC(=O)c1cccc(NC(=O)CCc2nc(-c3ccccc3F)no2)c1,6.9,nt,-15,-5,0.73,4.9,nt,nt,nt
CC1CCN(S(=O)(=O)N2CCC(C(=O)NCCN3CCOCC3)CC2)CC1,-2.3,i,-7,0,0.65,2.4,4,0,-5.8
O=C(NC1CCCCC1)C1CC(=O)N(CCc2ccccc2)C1 (configuration not stated),2.3,i,nt,3,0.73,4.5,4,-1,-9.0
CC1CN(CN2C(=O)c3ccccc3C2=O)CC(C)O1 (configuration not stated),-1.6,nt,-3,-4,0.72,0.8,nt,nt,nt
O=C1N=c2ccccc2=C1c1sc(NS(=O)(=O)Cc2ccccc2)nc1O,0.0,+,nt,0,0.68,6.5,11,10,0.8
COc1ccccc1-c1cc(NC(C)=O)c2ncc(-c3cccc(C(F)(F)F)c3)n2c1,3.4,i,nt,nt,nt,nt,3,-1,18
NS(=O)(=O)c1ccc(NC(=O)COC(=O)CCc2ccc(S(=O)(=O)N3CCOCC3)cc2)cc1,-1.9,i,0,-10,0.65,1.6,14,8,-0.4
COc1ccc(C2=NN(C(=O)c3cccs3)C(c3ccccc3O)C2)cc1 (configuration not stated),-3.5,i,1,15,0.7,-90,6,18,2.4
CC1(C)Cc2c(cnn2-c2ccc(F)cc2)C(NC(=O)C2CCC2)C1 (configuration not stated),6.4,i,0,-6,0.7,2.8,1,3,0.6
CCCCOc1cccc(NC(=O)CSc2nncn2C)c1,0.6,nt,1,-10,0.6,1.3,nt,nt,nt
Cc1nn2c3ccccc3n(CCN3CCCCC3)c2nc1=O,0.7,nt,-3,3,0.74,-58,nt,nt,nt
COC(=O)c1cc(OC)c(OCc2cc(C(=O)OC)oc2C)c(OC)c1,-0.8,nt,4,-1,0.75,-3.0,nt,nt,nt
COc1cc(CNC2CCC(C)C2)cc(OC)c1 (configuration not stated),-1.9,nt,6,1,0.66,1.6,nt,nt,nt
O=C1N[C@@H](Cc2ccccc2)COC(=O)[C@H](Cc2ccc(F)cc2)C/C=C\C[C@@H]1CC(=O)N(CCO)Cc1ccccc1,3.7,i,1,-2,nt,-1.6,-14,-24,-6.4
COc1ccc(S(=O)(=O)N2CCCCC2)cc1NC(=O)C1CC1(Cl)Cl (configuration not stated),-1.6,i,nt,nt,nt,nt,4,-4,0.6
CCCc1nc2c(s1)CCc1onc(-c3cccc([N+](=O)[O-])c3)c1-2,5.8,i,nt,2,0.71,32*,9,9,-2.2
Cc1nc(=S)c2ccccc2[nH]1,0.9,nt,14,-1,0.68,5.3,nt,nt,nt
Cc1ccc(S(=O)(=O)NC2=NCN(C(C)C)CN2)cc1,0.1,i,1,3,0.69,-3.5,11,16,-0.5
CCS(=O)(=O)N1CCC(NC(=O)c2cc(OC)cc(OC)c2)CC1,-2.3,nt,-7,-6,0.71,-0.5,15,7,-1.7
CCOc1ccc(CCNC(=O)C(C)n2nc(C)c3c(C)n(-c4ccccc4)nc3c2=O)cc1 (configuration not stated),1.5,i,-7,-6,0.68,1.3,-1,-3,-0.4
Cc1cccc(NC(=O)Cn2c(O)c(N=NC(N)=S)c3ccccc32)c1,2.3,i,-2,2,0.65,4.5,-3,-1,-2.5
COC(=O)c1sc(N/N=C/c2ccc(C(C)C)cc2)nc1C,2.0,i,1,-3,nt,nt,4,17,0.9
CCOC(=O)C1CCN(C(=O)Nc2c(-c3ccccc3)noc2C)CC1,6.3,i,-1,-1,0.67,1.1,3,13,-1.9
O=C(COC(=O)Cn1nnc2ccccc21)Nc1ccccc1Br,-1.3,i,-6,1,0.66,1.6,0,6,-3.1
CN(C(=O)COC(=O)c1cc(S(=O)(=O)N2CCOCC2)ccc1F)C1CCS(=O)(=O)C1 (configuration not stated),-2.1,i,-1,6,0.7,-0.3,11,20,-3.3
CC(=O)Oc1ccc(/C=N/NC(=O)c2ccc(N(C)S(=O)(=O)c3ccccc3)cc2)cc1,1.7,i,10,17,nt,nt,-4,-8,0.2
COc1cc2c(cc1NC(=O)CCC(=O)O)oc1ccccc12,0.4,nt,-11,10,0.71,2.9,-11,-3,-0.8

# Laid out differently: eleven of the compounds above.
# Order of results – HNF4A DNA FP | FGF22 binding | ALR inh | B2AR ag | Ecoli growth | UCH37 DUB inh | rRNA inh HTS | rRNA inh HTS OD600 | rRNA inh HTS RFP
COc1cc(CNC2CCC(C)C2)cc(OC)c1 (configuration not stated)
 : -1.9 | nt | 6 | 1 | 0.66 | 1.6 | nt | nt | nt
O=C1N[C@@H](Cc2ccccc2)COC(=O)[C@H](Cc2ccc(F)cc2)C/C=C\C[C@@H]1CC(=O)N(CCO)Cc1ccccc1
 : 3.7 | i | 1 | -2 | nt | -1.6 | -14 | -24 | -6.4
COc1ccc(S(=O)(=O)N2CCCCC2)cc1NC(=O)C1CC1(Cl)Cl (configuration not stated)
 : -1.6 | i | nt | nt | nt | nt | 4 | -4 | 0.6
CCCc1nc2c(s1)CCc1onc(-c3cccc([N+](=O)[O-])c3)c1-2
 : 5.8 | i | nt | 2 | 0.71 | 32* | 9 | 9 | -2.2
Cc1nc(=S)c2ccccc2[nH]1
 : 0.9 | nt | 14 | -1 | 0.68 | 5.3 | nt | nt | nt
Cc1ccc(S(=O)(=O)NC2=NCN(C(C)C)CN2)cc1
 : 0.1 | i | 1 | 3 | 0.69 | -3.5 | 11 | 16 | -0.5
CCS(=O)(=O)N1CCC(NC(=O)c2cc(OC)cc(OC)c2)CC1
 : -2.3 | nt | -7 | -6 | 0.71 | -0.5 | 15 | 7 | -1.7
CCOc1ccc(CCNC(=O)C(C)n2nc(C)c3c(C)n(-c4ccccc4)nc3c2=O)cc1 (configuration not stated)
 : 1.5 | i | -7 | -6 | 0.68 | 1.3 | -1 | -3 | -0.4
Cc1cccc(NC(=O)Cn2c(O)c(N=NC(N)=S)c3ccccc32)c1
 : 2.3 | i | -2 | 2 | 0.65 | 4.5 | -3 | -1 | -2.5
COC(=O)c1sc(N/N=C/c2ccc(C(C)C)cc2)nc1C
 : 2.0 | i | 1 | -3 | nt | nt | 4 | 17 | 0.9
CCOC(=O)C1CCN(C(=O)Nc2c(-c3ccccc3)noc2C)CC1
 : 6.3 | i | -1 | -1 | 0.67 | 1.1 | 3 | 13 | -1.9

# Other structures follow:
SMILES,HNF4A DNA FP,FGF22 binding,ALR inh,B2AR ag,Ecoli growth,UCH37 DUB inh,rRNA inh HTS,rRNA inh HTS OD600,rRNA inh HTS RFP
Cc1cccc(N2CC(C(=O)Nc3nccs3)CC2=O)c1C (configuration not stated),0.4,i,-1,2,0.66,3.7,3,9,0.6
O=c1[nH]c(/C=C/c2ccccc2F)nc2ccccc12,6.8,i,-4,28,0.69,-58,6,12,1.7
c1cnc2ccc(C(c3nnnn3C3CCCC3)N3CCSCC3)cc2c1 (configuration not stated),-1.4,nt,-1,-3,0.76,-2.3,nt,nt,nt
O=C(CN1CCOCC1)NCc1ccccc1,-4.8,i,-3,7,0.74,5.6,14,5,-3.3
Cc1nc(N)sc1C(=O)N1N=N1,-1.9,i,-1,-1,0.63,2.0,14,10,1.3
O=C(CSc1cccc(C(F)(F)F)c1)NC(=O)NCc1ccco1,-0.2,nt,6,-7,0.65,2.1,nt,nt,nt
CCc1nnc(SCC(=O)Nc2ccc(N3CCOCC3)cc2)n1C,1.6,i,23,-3,nt,nt,2,3,6.6
Cn1c(=O)c2c(nc(NCCCN3CCOCC3)n2Cc2ccc(Cl)cc2)n(C)c1=O,-0.5,nt,-7,-3,0.67,1.0,nt,nt,nt
NS(=O)(=O)c1ccc(CCNC(=O)CC(c2ccccc2)c2ccccc2)cc1,-1.1,i,-6,0,0.67,1.4,-6,-6,-2.5
COC(=O)c1cc(COC(=O)CNC(=O)c2ccc(Br)cc2)oc1C,-1.0,nt,-3,2,0.71,0.1,14,7,0.4
O=C(/C=C/c1ccc(Cl)cc1Cl)Nc1cccc(S(=O)(=O)NC2=NCCC2)c1,5.6,i,-2,7,0.65,1.3,-35,-44,-6.3

# Source: PubChem (several laboratories)
